Sa ugtP lethal = growth inhibition of S. aureus ugtP deletion strain. S. aureus RN4220 ugtP deletion, OD600 growth, 16 h; some inactives read as strong as hits. growth inhibition, % (test concentration not listed). 330,000 compounds, 0.54% hits. AID 1259309;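 active = z-score under -3 and OD600 up to 0.15 on both plates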;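 note: plate controls were untreated wells for no effect and antibiotic for full effect; wells of about 80 µL received 100 nL stock; the first replicate is given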
PrP 5UTR inh = suppresses PrP 5' UTR mRNA reporter expression. AID 488862. 340,000 compounds, 0.35% hits. cell-based PrP 5' UTR mRNA reporter, plate reader. inhibition, % (no concentration beside the values);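 active = every replicate at 50% or more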;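 note: 0 = median of the neutral control wells; tested in H4 reporter cells; numbers are from one replicate; inactives centre near -14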
Sa RN4220 lethal = S. aureus RN4220 growth inhibition; AID 1259311; OD600, 16 h; 330,000 compounds, 0.33% hits; inhibition, % (concentration not given with the values);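 active = z-score of -3 or lower and OD600 up to 0.18 on both plates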;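 note: plate controls were untreated cells for no effect and reference antibiotic for full effect; stock transfer was 100 nL into about 80 µL; one replicate is shown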
Autofluor counter = compound fluorescence in toxin protease inhibitor counterscreen; compound autofluorescence counterscreen, microsphere flow cytometry; active compounds read high; 360,000 compounds, 3.1% hits; fluorescence intensity (no concentration beside the values);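 active = at least 3 SD above the mean of all compounds, about 16000 in these data; inconclusive = too few beads counted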;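 note: 100 nL of 1 mM stock went into each well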
BJeLR viability = kills HRASV12-expressing BJeLR cells. 300,000 compounds, 0.17% hits. inhibition, % (test concentration not listed). BJeLR (HRASV12) viability, CellTiter-Glo ATP luminescence, 48 h; reference of the scale not given here;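 active = replicate mean above 50%; inconclusive = above 50% but judged a plate artefact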;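 note: 50 nL library stock added to about 25 µL; numbers are from one replicate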
Mtb hypoxia inh = Mtb hypoxia fluorescent reporter inhibition; fluorescence inhibition, % (no concentration beside the values); 300,000 compounds, 0.1% hits; M. tuberculosis hypoxia-regulated fluorescent reporter, fluorescence; AID 1159583;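 active = 35 to 45% if threefold the growth effect, above 45% if 1.5-fold the growth effect; inactive = the rest, general growth blockers included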;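 note: wells of about 50 µL received 100 nL stock; 0% = vehicle wells and 100% = reference inhibitor wells; whole bacteria with a GFP reporter of the hypoxia response; strong numbers were not always called active; many hits fall short of the cut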
Mtb hypoxia inh growth = further read-out of Mtb hypoxia inh, marked with its call; growth inhibition, %; measured here: M. tuberculosis growth (absorbance);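 0% = vehicle and 100% = reference antibiotic; read after six days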
Active calls of the source: *; ? = inconclusive; nt = no result given.

SMILES	Sa ugtP lethal	PrP 5UTR inh	Sa RN4220 lethal	Autofluor counter	BJeLR viability	Mtb hypoxia inh	Mtb hypoxia inh growth
O=C(O)CCCCNS(=O)(=O)/C=C/c1ccccc1	1.9	-15.0	0.0	3965	2.3	7.1	-1.7
CCN(CC)CC(=O)Nc1sc(C)cc1C(=O)c1ccccc1	31.6	-1.7	3.6	3199	-4.4	-4.3	-3.3
COc1cccc(CNS(=O)(=O)c2c(C)[nH]c(C)c2C(=O)N2CCCCC2)c1	-3.2	-10.3	2.6	2884	7.8	6.6	9.4
Cc1ccccc1OCCCCc1c(C)n[nH]c1C	-12.8	-34.3	12.8	11354	23.4	7.0	2.8
C=CCn1c(NN=Cc2ccc(O)cc2)nc2ccccc2c1=O	0.0	nt	4.6	nt	nt	0.8	10.6
Cc1oc2cc3oc(=O)cc(C)c3cc2c1C	1.7	-20.9	3.9	3751	2.3	-8.6	8.5
Cc1ccc(C2N(C)C(=O)c3ccccc3N2C)cc1 (configuration not stated)	14.1	-11.6	3.6	3910	9.8	2.9	9.9
COCc1cc(C)nc(SCC(=O)Oc2ccccc2)c1C#N	1.3	-0.1	2.0	3077	-7.5	0.4	3.3
Cc1csc2c(N3CCCCC3)ncnc12	17.3	-26.4	9.0	5307	-3.5	2.2	-1.2
COc1ccc(C(=S)N2CCOCC2)cc1OC(=O)c1ccc(C)cc1	7.4	-33.6	4.5	5469	-11.0	-4.4	-15.3
CN1CCc2c(sc(/N=C/c3cc(Cl)ccc3O)c2C#N)C1	nt	-33.2	nt	6126	16.3	nt	nt
COCCNC(=O)CCCn1c(=O)c2cc(OC)c(OC)cc2n(CC(=O)c2ccc(Cl)cc2)c1=O	13.9	nt	4.4	nt	-2.1	4.1	-0.3
CCc1ccccc1S(=O)(=O)Cc1ccc(C(=O)NCCc2ccccc2)o1	9.8	-16.7	6.4	5188	7.1	14.4	10.4
O=C(NC1CCCC1)C1C2C=CC(C2)C1C(=O)N1CCOCC1 (configuration not stated)	0.7	-7.8	16.9	21400*	-0.3	2.7	2.3
O=C(CNC(=O)c1ccccc1F)NCc1ccncc1	3.3	-7.0	2.4	3356	nt	6.5	7.5
Nc1ccc(Sc2nnnn2-c2ccccc2)c(Cl)c1	4.0	-10.5	5.0	8131	-0.7	2.1	12.6
O=C(CCn1c(=O)oc2cc(Cl)ccc21)Nc1ccc(O)cc1	-2.9	-9.4	-1.1	3802	-11.0	-14.2	7.6
CCc1cc(=O)oc2c3c(cc(OCC(=O)NCCCCCC(=O)O)c12)OC(C)(C)CC3	10.3	-21.0	5.2	3085	13.0	-4.9	1.8
CC1CCN(C(=O)COC(=O)c2ccc(=O)n(Cc3ccccc3)n2)CC1	5.9	-11.6	-2.3	?	-10.9	-2.3	6.9
O=C1NC(=S)SC1=Cc1ccc2c(c1)OCO2	69.8	-29.5	63.5	4271	nt	6.0	3.8

Exported with two lines to a compound: part of the list above
Values run as follows: Sa ugtP lethal | PrP 5UTR inh | Sa RN4220 lethal | Autofluor counter | BJeLR viability | Mtb hypoxia inh | Mtb hypoxia inh growth
COc1ccc(C(=S)N2CCOCC2)cc1OC(=O)c1ccc(C)cc1
→ 7.4 | -33.6 | 4.5 | 5469 | -11.0 | -4.4 | -15.3
CN1CCc2c(sc(/N=C/c3cc(Cl)ccc3O)c2C#N)C1
→ nt | -33.2 | nt | 6126 | 16.3 | nt | nt
COCCNC(=O)CCCn1c(=O)c2cc(OC)c(OC)cc2n(CC(=O)c2ccc(Cl)cc2)c1=O
→ 13.9 | nt | 4.4 | nt | -2.1 | 4.1 | -0.3
CCc1ccccc1S(=O)(=O)Cc1ccc(C(=O)NCCc2ccccc2)o1
→ 9.8 | -16.7 | 6.4 | 5188 | 7.1 | 14.4 | 10.4

Further structures follow.
SMILES	Sa ugtP lethal	PrP 5UTR inh	Sa RN4220 lethal	Autofluor counter	BJeLR viability	Mtb hypoxia inh	Mtb hypoxia inh growth
COCc1nnc(NC(=O)CCCCCN2C(=O)c3ccccc3C2=O)s1	5.9	-9.5	3.2	11439	3.7	-1.0	4.1
CC(C)C(=O)Nc1nnc(Cc2c[nH]c3ccccc23)s1	2.4	-21.0	3.4	4038	11.3	7.5	3.1
CCCC(=O)OCC(=O)Nc1ccc2c(c1)OCO2	3.9	-25.6	4.6	3154	-2.0	18.4	9.4
Cc1cc(C(=O)NCC(=O)OC(C(=O)Nc2cc(C(F)(F)F)ccc2Cl)c2ccccc2)ccc1[N+](=O)[O-] (configuration not stated)	-13.0	14.0	-11.1	3931	-2.6	nt	nt
CCN(CC)c1ccc(/C=N/Nc2nc3ccccc3[nH]2)cc1	nt	-69.3	nt	2440	19.1	nt	nt
COc1cc(Cl)cc(C#N)c1OCC(=O)O	0.1	-21.9	2.7	6163	4.6	-3.0	3.3
CC(=O)N1CCN(CC(=O)Nc2ccc(C)c(F)c2)CC1	7.2	-8.4	4.4	3693	3.3	5.7	3.7
Cc1c(NC(=O)CSc2nnc(-c3ccncc3)o2)c(=O)n(-c2ccccc2)n1C	-2.6	-13.9	-0.1	4358	2.0	-6.3	4.3
O=C(N/N=C/c1ccc(O)cc1O)c1ccncc1	nt	2.4	nt	3851	1.6	nt	nt
CCCCNC(=O)CN(c1ccc(Cl)c(Cl)c1)S(C)(=O)=O	2.8	-14.5	4.0	2064	8.0	-5.5	-3.1
Cc1nn2c(NCC(C)C)c3c(nc2c1-c1ccccc1)CCC3	10.9	-25.2	2.5	10373	0.6	-2.1	-0.6
OC(c1cc(C(F)(F)F)nc2c(Cl)cc(Cl)cc12)C1CCCCN1 (configuration not stated)	2.8	-2.9	-0.8	3776	-4.8	22.4	24.2
CCCCOP(=O)(CN1CCOCC1)OCCCC	-3.8	-6.3	-15.3	2956	8.6	5.4	2.8
CS(=O)(=O)Nc1ccccc1C(=O)c1ccccc1	5.5	2.0	2.1	3000	-1.7	8.8	0.1
CCOc1cc(C(=S)N2CCOCC2)cc(Br)c1OS(=O)(=O)c1ccccc1	-0.6	2.5	0.6	4551	-7.5	9.1	11.3
CC1CCCC(C)N1N=Cc1ccc([N+](=O)[O-])cc1 (configuration not stated)	18.0	nt	3.0	nt	nt	2.0	0.4
Nn1c(SCC(=O)NCc2ccccc2)nnc1C1CC1	-8.9	-13.2	-4.2	15905	-5.3	-5.1	0.5
Cc1cc(C)n(-c2cc(N3CCN(S(=O)(=O)c4ccc5ccccc5c4)CC3)ccc2[N+](=O)[O-])n1	0.9	-9.2	-0.7	5874	-6.1	nt	nt
COc1cc(O)c2c(c1)OC(c1ccc(O)cc1)CC2=O (configuration not stated)	14.1	-10.1	41.3	4302	0.1	nt	nt
CCOC(=O)C(=O)Nc1nc(-c2ccc3c(c2)CCN3C(=O)C2CC2)c(C)s1	nt	-14.7	nt	3808	-2.1	nt	nt
CCOC(=O)c1cccc(NC(=O)CCn2nnc3ccccc32)c1	0.8	-13.6	2.3	4176	5.9	0.9	-9.2
CCOc1cc(C(=O)NC(CC(=O)O)c2ccc(OC3CCCC3)cc2)cc(OCC)c1OCC (configuration not stated)	2.8	-19.6	1.6	3628	2.7	10.7	9.1
COc1cc(NC(=S)NC2CC(C)(C)NC(C)(C)C2)cc(OC)c1	-0.1	4.2	3.6	3702	-5.4	4.2	-4.9
CCC(=O)N1CCN(c2ccc(Cl)cc2NC(=O)c2ccc(Br)o2)CC1	-13.4	-17.0	-1.8	22198*	2.9	-4.5	2.0
COc1ccccc1N1CCN(C(=O)c2ccc3nc(-c4ccco4)c(-c4ccco4)nc3c2)CC1	24.8	-13.4	1.6	8608	-0.4	0.4	8.9
COc1cc(S(=O)(=O)NC2CCCC2)c(OC)cc1Cl	-2.4	-15.1	0.6	10384	-5.6	4.4	7.3
Cc1onc(-c2ccccc2Cl)c1C(=O)NC(=S)NCc1cccnc1	0.6	-33.2	-1.6	2678	-20.3	-8.1	4.6
N/C(=N\OC(=O)c1ccc(Cl)cc1Cl)c1ccc(Cl)cc1	-9.5	19.0	-12.5	2510	7.1	21.1	-16.4
COc1ccc(CNC(=O)C(c2cccs2)N(C(=O)c2csnn2)C2CC2)cc1 (configuration not stated)	-5.3	-20.8	5.3	24268*	-7.9	10.2	9.0
Cc1ccc(CN(Cc2ccc(C)o2)C(=S)NCC(=O)O)cc1	-3.6	-5.0	1.9	1878	-2.6	8.3	7.1
O=C(C1CC(=O)N(c2ccc(F)cc2)C1)N1CCN(c2ccc(F)cc2)CC1 (configuration not stated)	6.6	-1.1	1.0	4604	5.8	1.8	-6.8
COC(=O)c1c(N)sc(Cc2ccccc2)c1C	2.7	-3.3	10.6	6850	-1.0	-8.0	-6.8
CC(C)CC(CO)N1CCN(Cc2ccc(O)cc2)CCC1=O (configuration not stated)	-0.9	nt	2.5	nt	nt	4.1	6.3
C(=Nn1cnnc1)c1cccnc1	3.0	nt	7.4	nt	nt	5.4	11.8
O=C(O)CS(=O)(=O)CC(=O)NCc1cccc(C(F)(F)F)c1	4.7	-18.6	0.4	2638	0.8	6.6	13.3
C=CCN1C(C(=O)c2ccccc2)=C(OC(=O)COc2ccccc2)c2ccccc2S1(=O)=O	7.5	-21.5	29.3	10462	nt	13.9	1.5
CN(Cc1ccccc1F)C(=O)c1ccc(Oc2ccccc2)cc1	91.3*	-14.8	78.3	3876	-0.7	6.5	9.9
O=C(CCCCCn1c(=S)[nH]c2cc3c(cc2c1=O)OCO3)N1CCN(C(=O)c2ccco2)CC1	8.5	-3.1	5.6	5713	3.4	8.1	4.8
CCC(C(N)=O)N1CCCC1=O (configuration not stated)	-5.4	nt	5.3	nt	nt	-1.3	-10.8
CC1CC(C)CN(S(=O)(=O)c2cc3c(cc2Cl)NC(=O)CO3)C1 (configuration not stated)	3.5	-28.5	5.6	5329	-9.4	nt	nt
O=C(NC1CCCC1)C1CCN(C(=O)c2ccccc2Cl)CC1	-5.0	-10.5	4.6	4192	4.9	14.0	2.1
CC1CN(S(=O)(=O)c2ccc(C(=O)Nc3nnc(-c4ccccn4)o3)cc2)CC(C)O1 (configuration not stated)	-4.9	-37.7	7.5	2608	2.4	-3.1	5.8
CCN(CC)CCNC(=O)c1cc2c(-c3cccc(OC)c3)nn(C)c2s1	-1.1	-5.9	-1.9	3562	2.3	9.1	-0.3
C[C@H](C(=O)CC(=O)OC(C)(C)C)[C@H](O)c1ccc(C(F)(F)F)cc1	nt	-25.4	nt	4412	1.5	nt	nt
CCOC(=O)C1=C(C)N(C)C(C)=C(C(=O)OCC)C1c1ccccn1	-0.9	-22.2	0.0	9082	-12.1	9.5	4.0
CCn1c(Cc2c(C)[nH]c3ccccc23)nnc1SCC(=O)NCc1ccccc1	-1.9	1.7	0.9	4581	-1.9	3.8	10.6
COc1ccccc1C(=O)Nc1nnc(S(=O)(=O)N2CCN(c3ccc(F)cc3)CC2)s1	3.3	2.5	0.0	5838	1.2	-0.8	2.9
Fc1ccc(CN2CCC(Cc3ccccc3)CC2)cc1F	10.9	49.9	-3.6	nt	6.2	8.1	6.0
CCN(CC(=O)Nc1cc(Cl)ccc1C)C(=O)CN1C(=O)NC2(CCCC2)C1=O	8.8	-17.5	0.3	?	-6.8	1.9	-0.5
Cc1ccc(S(=O)(=O)NCC(=O)OC(C)C(=O)c2ccccc2)cc1 (configuration not stated)	-3.7	-23.3	-3.5	4655	3.6	-4.2	-0.5

Following part
SMILES	Sa ugtP lethal	PrP 5UTR inh	Sa RN4220 lethal	Autofluor counter	BJeLR viability	Mtb hypoxia inh	Mtb hypoxia inh growth
CCN(C(=O)COC(=O)c1ccc2c(c1)OCO2)c1ccccc1	1.1	0.5	0.6	2859	nt	12.8	8.4
Cc1c(NC(=O)COC(=O)C2(c3ccc(F)cc3)CCCC2)c(=O)n(-c2ccccc2)n1C	15.4	-2.3	6.0	5032	1.6	3.7	-4.3
CCCN1C(=O)c2ccc(C(=O)Nc3cc(C)ccc3O)cc2C1=O	5.1	-21.1	3.3	2973	3.3	16.9	4.2
COc1cccc2c(=O)n(CC(=O)Nc3ccccc3)ccc12	7.5	-1.7	-0.4	4331	4.7	2.8	0.0
Cc1c(CCC(=O)O)c(=O)oc2cc3oc4c(c3cc12)CCCC4	10.4	30.3	8.2	3373	-0.7	-10.3	0.2
Cc1c(C(=O)Nc2cccc3cccnc23)oc2ccccc12	-5.0	-78.6	1.2	5356	-5.7	4.2	2.2
CCc1cc2c(=O)n(CC)c(SC(C)C(=O)Nc3c(C)n(C)n(-c4ccccc4)c3=O)nc2s1 (configuration not stated)	-2.8	-2.1	-1.3	2397	2.1	nt	nt
O=C(O)c1cc(-c2ccc3c(c2)OCO3)nc2ccccc12	-15.8	-18.2	0.1	3689	1.8	-4.0	9.7

Compound activity deposited in PubChem by several laboratories.
